Tau fluor counter: counter-screen for tau fibril formation inhibitors | tau K18 P301L Alexa594 fluorescence, heparin fibrillization | Potency, µM (series often up to 57.7 µM), for the others: at the highest dose activity change, negative = decrease | actives 0.93% (n = 280,000); also: % is scaled to controls: 0 for no effect and ±100 for the full control effect; nearly all actives have a fitted effect of over 55% in size
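Human tau K18 P301L (15 uM unlabeled, 0.24 uM Alexa 594-labeled) in 100 mM sodium acetate pH 7 with 20 uM heparin, 6 hr at 37 C. ThT 30 uM added, 1 hr ambient; Alexa 594 FP and total fluorescence read at 555/632 nm.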
Tau FP inhib: blocks human tau fibril formation measured by polarization; K18 P301L tau heparin fibrillization, Alexa594 FP, 6 h; P10636; actives 0.39% (n = 280,000); AID 1468; Potency, µM (top dose mostly 57.7 µM), inactives show top-dose activity, negative = inhibition, usual class: inhibitors; also: % is scaled to controls: 0 for no effect and ±100 for the full control effect; nearly all actives have a fitted effect of over 55% in size
Target sequence (P10636 561-689 P618L limits assumed): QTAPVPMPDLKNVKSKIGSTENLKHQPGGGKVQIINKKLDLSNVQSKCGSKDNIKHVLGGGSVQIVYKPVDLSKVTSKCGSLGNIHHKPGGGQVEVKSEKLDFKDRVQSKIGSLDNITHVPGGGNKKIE
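Compound effects on tau fibrillization are measured by Alexa 594 fluorescence polarization (ex 555, em 632 nm). K18 P301L tau is used at 15 uM with 0.24 uM labeled tracer, and 20 uM heparin induces aggregation over 6 hr at 37 C.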
Tau fibril ThT: tau fibrillization inhibition (ThT binding). actives 2.1% (n = 270,000). recombinant tau K18 P301L (four-repeat tau fragment), heparin-induced fibrillization, ThT fluorescence. Potency, µM (doses to about 57.4 µM), for the others: at the highest dose activity, negative = inhibition, hits mostly inhibitors; also: % is scaled to controls: 0 for no effect and ±100 for the full control effect; nearly all actives have a fitted effect of over 55% in size
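Heparin-induced fibrillization of the P301L-mutant K18 repeat-domain fragment of human tau was followed by ThT binding in quantitative high-throughput format.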
HttQ103 aggreg: inhibitors of mutant huntingtin aggregate formation in PC12 cells; PC12 HttQ103-GFP aggregates, Acumen cytometry, 40 h; Potency, µM (titrated, usually from 46.1 µM), for inactives: top-dose activity change, negative = inhibition, actives largely listed as inhibitors; actives 1.1% (n = 220,000); also: % is scaled to controls: 0 for no effect and ±100 for the full control effect; nearly all actives have a fitted effect of over 60% in size
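Inducible Q103 Huntingtin exon 1–GFP PC12 line, 1500 cells/well in phenol red free DMEM with 5% equine and 5% calf serum. Tebufenozide 100 nM induced expression; compounds titrated; aggregates quantified by cytometry.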
KDM4E inh: JMJD2E (human) inhibition. JMJD2E catalytic domain, FDH-coupled NADH fluorescence (FDH is formaldehyde dehydrogenase). B2RXH2. actives 1.6% (n = 230,000). Potency, µM (titrated, usually from 57.1 µM), for the others: at the highest dose activity change, negative = inhibition, most hits filed as inhibitors; active = well fitted inhibition curve with a large enough effect, not every such curve was filed as active; inconclusive = small, poorly fitted or top-dose-only effect, or another doubt; inactive = no such curve, though single readings can be large or run the other way;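 also: 0% = wells with enzyme and -100% = buffer wells without enzyme; nearly all actives have a fitted effect of over 50% in size; many of its hits are not listed in these tables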
Target sequence (B2RXH2 1-337 limits assumed): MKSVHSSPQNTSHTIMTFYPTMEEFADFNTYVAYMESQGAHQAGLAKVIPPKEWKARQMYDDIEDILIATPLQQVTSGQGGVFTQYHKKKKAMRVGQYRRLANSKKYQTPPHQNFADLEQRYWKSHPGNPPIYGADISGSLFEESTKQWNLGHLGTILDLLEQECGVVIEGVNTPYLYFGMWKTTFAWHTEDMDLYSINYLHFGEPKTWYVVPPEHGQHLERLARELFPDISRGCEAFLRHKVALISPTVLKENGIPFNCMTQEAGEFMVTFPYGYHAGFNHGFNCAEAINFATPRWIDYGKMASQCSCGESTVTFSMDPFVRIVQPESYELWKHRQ
HTT ATP protect: Huntington cell model cytoprotection by ATP luminescence. Potency, µM (series often up to 56.4 µM), without a hit: cytoprotection (ATP increase), hits mostly activators. PC12 HTT-Q103 induced, cytoprotection, ATP luminescence, 40 h. actives 0.14% (n = 230,000). AID 1471;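 also: % of control where 0% means no effect; nearly all actives have a fitted effect of over 45% in size; toxic huntingtin expression switched on by the ecdysone agonist tebufenozide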
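Compounds were screened for protection of PC12 cells against cell death after tebufenozide induction (100 nM final) of mutant Huntingtin exon 1 (Q103) fused to GFP.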
SMN2 splice up: SMN2 splice variant enhancement. HEK293 SMN2-luciferase splicing reporter, luminescence, 30-36 h. Potency, µM (highest dose often 46.1 µM), for inactives: top-dose activity change, positive = activation, most hits filed as activators. actives 2.8% (n = 210,000); also: % of control where 0% means no effect; nearly all actives have a fitted effect of over 55% in size
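qHTS luciferase splicing reporter: luminescence rises when SMN2 exon 7 is included in transfected HEK293 cells. Compound exposure lasted 30-36 h at 37C, with 4.5 mM final sodium butyrate as control, followed by a ONE-Glo read.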
The depositor's hits bear a star; ? = inconclusive; · = no result given; & = joins results of further samples; [ ] = dose if it differs, or a comment. Unless noted, calls follow the shape of the dose curve; as a rule, active = well fitted curve in the direction sought with a large enough effect; inconclusive = small, poorly fitted or top-dose-only effect, or another doubt; inactive = no such curve, though single readings can be large; an effect the other way counts as inactive or inconclusive. Potency is read from the fitted curve at half-maximal effect.

SMILES | Tau fluor counter | Tau FP inhib | Tau fibril ThT | HttQ103 aggreg | KDM4E inh | HTT ATP protect | SMN2 splice up
C=CCNc1nc(Cl)nc(Nc2ccc(OC)cc2OC)n1 | 2% | 8% | -1% | -19%[9.22 µM] | -4% | -15%[10 µM] | ·
CS(=O)(=O)N(Cc1ccccc1)c1ccc(C(=O)NC2CCCCC2O)cc1 (configuration not stated) | -2% | 5% | -2% | 4% | -5% | -23% | -11%
CCCCC(=O)NS(=O)(=O)c1ccc(N=NN(CC)CC)cc1 | -12% | -8% | -10% | -8%[9.22 µM] | 2% | 8%[10 µM] | ·
Cc1cccc(-c2nc3c(c(SCC(=O)N4CCOCC4)n2)CCCC3)c1 | -7% | 10% | ? | -1% | 1% | 6%[10 µM] | -10%
Cc1ccc(C2C(=O)N(C3CCC(C)CC3)CC(=O)N2C2CC2)cc1 (configuration not stated) | -19% | -13% | -14% | 21% | 5% | -2% | ·
CC(C)(C)NC(=O)C(=O)NNC(=O)COc1ccc(Br)cc1 | 9% | 1% | 1% | -3% | 1% | -10%[10 µM] | -3%
COc1ccccc1N1CCN(C(=O)CSc2nnc(NC(=O)C3CCC3)s2)CC1 | 0% | 10% | -4% | 0% | 1% | -36% | -2%
Cc1cnn(-c2cc(N/N=C/c3ccc(F)cc3)ncn2)c1 | -16% | -9% | -16% | 2% | 2% | -56%[inhibitor] | -8%
Cc1cccc(N(CC(=O)NC2CCCCC2)C(=O)c2ccc(C)s2)c1 | -2% | 6% | -8% | -4% | 4% | -19% | -4%
CCOc1ccc(C(=O)N/N=C(/C)C2C(=O)c3ccccc3C2=O)cc1 | -20% | 1% | 1.8µM* | 10µM* | -24% | 10%[10 µM] | -46%[inhibitor]
COc1ccccc1C1CCCN1Cc1nc(-c2cc3c(cc2Cl)OCO3)oc1C (configuration not stated) | -10% | -6% | ? | -21%[9.22 µM] | ? | -15%[10 µM] | ·
Cc1cc(=O)c2n(Cc3ccccc3Cl)nc[n+]2[nH]1 | -4% | 3% | 4% | -15% | -6% | 3%[10 µM] | 5%
O=C(CS(=O)(=O)c1ccccc1)N1CCCCCC1 | 0% | -2% | 0% | -4% | 5% | -14% | ?
COc1ccc(CCNC(=O)COc2ncnc3ccccc23)cc1 | 0% | -1% | 3% | 1% | 8% | 9% | 0%
O=C(O)C1C2CCC(O2)C1C(=O)NCc1ccccc1Br (configuration not stated) | 2% | 3% | 4% | -6% | 8% | -35%[inhibitor] | -18%
CC1(C)CC2/C(CO)=C/C=C/[C@](C)(O)CC[C@]21O (some centres not stated) | -3% | 1% | 4% | · | 3% | · | -10%
Nn1c(SCC(=O)NC2CCCCC2)nnc1-c1ccccc1 | -2% | -2% | -6% | -20% | 0% | -1%[10 µM] | -1%
NC(=O)c1ccc(NC(=O)COC(=O)C2(c3cccc(F)c3)CCCC2)cc1 | -26% | -9% | -8% | 25% | -18% | -19%[10 µM] | -13%
COc1cccc(CNCCSc2nnnn2C)c1OC | -6% | -2% | -5% | -2% | -1% | 3% | 2%
CC1(C(=O)NCC2CCCO2)Oc2cccnc2NC1=O (configuration not stated) | 7% | -1% | -3% | -16% | 4% | -28% | ·

Compound profiles (already shown). Values in the order: Tau fluor counter, Tau FP inhib, Tau fibril ThT, HttQ103 aggreg, KDM4E inh, HTT ATP protect, SMN2 splice up
CC1(C)CC2/C(CO)=C/C=C/[C@](C)(O)CC[C@]21O (some centres not stated) across the screens: -3%, 1%, 4%, ·, 3%, ·, -10%
O=C(O)C1C2CCC(O2)C1C(=O)NCc1ccccc1Br (configuration not stated) across the screens: 2%, 3%, 4%, -6%, 8%, -35%[inhibitor], -18%
CC(C)(C)NC(=O)C(=O)NNC(=O)COc1ccc(Br)cc1 across the screens: 9%, 1%, 1%, -3%, 1%, -10%[10 µM], -3%
NC(=O)c1ccc(NC(=O)COC(=O)C2(c3cccc(F)c3)CCCC2)cc1 across the screens: -26%, -9%, -8%, 25%, -18%, -19%[10 µM], -13%
COc1ccccc1C1CCCN1Cc1nc(-c2cc3c(cc2Cl)OCO3)oc1C (configuration not stated) across the screens: -10%, -6%, ?, -21%[9.22 µM], ?, -15%[10 µM], ·

Reprinted at random: 2 compounds from above
SMILES | Tau fluor counter | Tau FP inhib | Tau fibril ThT | HttQ103 aggreg | KDM4E inh | HTT ATP protect | SMN2 splice up
COc1ccccc1C1CCCN1Cc1nc(-c2cc3c(cc2Cl)OCO3)oc1C (configuration not stated) | -10% | -6% | ? | -21%[9.22 µM] | ? | -15%[10 µM] | ·
CC1(C)CC2/C(CO)=C/C=C/[C@](C)(O)CC[C@]21O (some centres not stated) | -3% | 1% | 4% | · | 3% | · | -10%

The results go on:
SMILES | Tau fluor counter | Tau FP inhib | Tau fibril ThT | HttQ103 aggreg | KDM4E inh | HTT ATP protect | SMN2 splice up
NS(=O)(=O)c1ccc(CCN=C(NS(=O)(=O)c2cccs2)c2ccccc2)cc1 | 0% | 6% | 4% | 10% | 0% | -14% | 16%
COc1ccc(NC(=O)CSc2nc(C)cc(C)n2)cc1 | 0% | 10% | 0% | 5% | 2% | -12% | ·
C=CCn1c(C(CCCC)CC(O)COCC(C)C)n[nH]c1=S (configuration not stated) | -10% | 0% | -2% | -4%[9.22 µM] | -25% | -1%[10 µM] | 2%
CCOc1ccc(Cl)cc1S(=O)(=O)n1nnc2ccccc21 | -8% | -8% | -2% | -8% | 6% | -9% | 25µM*
O=C(O)c1c2c(nc3ccccc13)CCCCC2 | 3% | 8% | 4% | 1% | 7% | 9%[10 µM] | 9%
COc1ccc(N(C)S(=O)(=O)c2cccc(C(=O)NC3CCCCCC3)c2)cc1 | -12% | 3% | -4% | -22% | 12% | · | -15%
Cc1cc(C(=O)NCCCN2CC(C)CC(C)C2)n(-c2ccccc2)n1 (configuration not stated) | -11% | -1% | -7% | 2% | 4% | -13% | 5%
C/C(=N\NC(=O)c1nn(C)c(C)c1Br)c1ccc(NC(=O)c2ccccc2F)cc1 | -4% | 4% | ? | -5% | 9% | 19%[10 µM] | ?
COC(=O)CCCC1=CC2=CC(=O)C(C)(OC(=O)c3cccs3)C(=O)C2=CN1C1CCCCC1 (configuration not stated) | -6%[11.6 µM] | 10%[11.6 µM] | -13%[11.5 µM] | -2%[9.22 µM] | ? | 23%&-1%[10 µM] | 5%[9.22 µM]
COc1ccc(CNC(=O)C2CCN(C(=O)N(C)C)CC2)c(OC)c1 | -9% | 3% | -8% | 8% | 0% | 3%[10 µM] | 13%
CCSc1nc2ccc(N3C(=O)C4C5C=CC(C5)C4C3=O)cc2s1 (configuration not stated) | -12% | -3% | -15% | -15% | -8% | -10%[10 µM] | 8%
CCCc1nc(SCC(=O)c2ccccc2)c2c(=O)n(C)c(=O)n(C)c2n1 | -18% | -6% | ? | -13% | -4% | -20%[10 µM] | -52%[inhibitor]
Cc1c(NC(=O)c2cnn3c2NC(c2ccco2)CC3C(F)(F)F)c(=O)n(-c2ccccc2)n1C (configuration not stated) | 10% | 7% | -4% | 3% | -6% | 7% | -5%
COc1cc(S(N)(=O)=O)c(OC)cc1N | -6% | -11% | 1% | 21%[9.22 µM] | -9% | 21%[10 µM] | ·
CC1CN(C(=O)c2cc3cc([N+](=O)[O-])ccc3s2)CC(C)O1 (configuration not stated) | 5% | -5% | -2% | -4% | 5% | -29% | -10%
Cc1cccc(OCC(=O)N/N=C/c2sc(=O)n(Cc3cccc(C(=O)O)c3)c2Cl)c1 | -12% | -4% | -19% | 0%[9.22 µM] | 4% | 1%[10 µM] | ·
Cc1cc(C)nc(Sc2ccc3nnnn3n2)n1 | -4% | -2% | 2% | 11% | 0% | 27%[10 µM] | -23%
O=C(/C=N/O)NCCCN1CCOCC1 | -4% | -1% | 2% | -20% | 0% | 20%[10 µM] | -33%
O=C(NCc1ccc(F)cc1)C(=O)NCC1OCCN1C(=O)c1cccs1 (configuration not stated) | 4% | 9% | -2% | 14% | 6% | -6%[10 µM] | -4%
Cc1ccccc1-n1nc2c(c1NC(=O)c1c(-c3ccccc3Cl)noc1C)CS(=O)(=O)C2 | 0% | -3% | 1% | -26% | 2% | 2%[0.074 µM] | 14%
COc1ccc(C(=O)Nc2cc(Cl)cc(Cl)c2)c(OC)n1 | -4% | 3% | -9% | 10% | 5% | -10% | 1%
CCc1nn(-c2cc(Oc3ccccc3)nc(-c3ccccc3)n2)c(N)c1C#N | -1% | 5% | -7% | 14% | 3% | 18% | 1%
O=C(NCCO)C1(c2ccc(Cl)cc2)CCCC1 | -6% | 5% | -8% | 4% | 3% | -8% | 18%
O=C(O)c1cccnc1Oc1ccccc1 | -1% | 6% | -5% | -18% | 7% | 5%[10 µM] | 3%
COC(=O)c1cccc(C(=O)Nc2cnc3ccccc3c2)n1 | -22% | -12% | -18% | 4% | ? | -10% | -5%
O=C(Nc1ccc2nsnc2c1)N1CCCCCC1 | 0% | 10% | -10% | -17% | ? | -25% | -9%
Cc1nc2scc(-c3ccccc3)c2c(=O)n1/N=C/c1ccco1 | 1% | -1% | -6% | -7% | 3% | -30% | -6%
O=C(Cn1nc(C(F)(F)F)c2c1CCCC2)NCc1ccco1 | -4% | -5% | -1% | -8% | 9% | -3% | 1%
CCn1c(=O)n(CC(=O)N2CCN(c3ccccc3F)CC2)c(=O)c2ccccc21 | -4% | 2% | 2% | 4% | -8% | 6% | 5%
CCOC(=O)CCCNC(=O)CN1C(=O)NC(CCc2ccccc2)C1=O (configuration not stated) | 6% | 6% | 5% | -19% | 2% | -9%[10 µM] | 1%
CNc1cnn(-c2ccccc2)c(=O)c1Cl | 3% | -7% | 3% | ? | -7% | 2% | 6%
CN1CCN(C(N)=NC(=O)c2ccccc2)CC1 | 5% | -1% | 8% | -8% | 3% | 26%[0.074 µM] | 9%
O=C(CN(C(=O)CSc1nc2ccccc2o1)c1ccccc1)NC1CCCCC1 | -12% | -5% | -12% | -5% | -5% | 2% | -8%
OCCNCC1(O)C2CC3CC(C2)CC1C3 (configuration not stated) | 1% | 6% | -6% | 3% | 10% | -1% | -14%
O=C(Nc1ccccc1Cl)c1cccc(NC(=O)C2C3CC4OC(=O)C2C4C3)c1 (configuration not stated) | -1% | 1% | 0% | 10% | 3% | -13% | -5%

Only part of the results is shown; the hit share may differ from the screen's.
